Bioassay records (PubChem)
Beta apoptosis: inhibitors of cytokine-induced beta cell apoptosis, primary screen, luminescence; protection from apoptosis, % (no concentration beside the values); INS-1E cytokine-induced death, ATP luminescence, 48 h; percent of positive-control rescue, neutral wells zero; 300,000 compounds, 0.8% hits;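 active = all replicates at 75% or more, or half of them and the mean; inconclusive = half reach 75% but not the mean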;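 note: 0% = cytokine-treated negative control wells and 100% = positive control rescue; higher means more ATP so stronger rescue from cytokine killing; wells of about 40 µL received 100 nL stock; the first replicate is given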
Calb FLC: C. albicans growth inhibition with fluconazole, primary screen, CaCi-2 strain, Alamar Blue fluorescence. C. albicans CaCi-2 (fluconazole-resistant clinical isolate) + fluconazole, 48 h. 300,000 compounds, 0.57% hits. growth inhibition, % (test concentration not listed);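 active = most replicates above 75%; inconclusive = exactly half above 75%; inactive = most below 75%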;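 note: all wells also contain fluconazole at 8 µg/ml as a sub-toxic cotreatment; 0% = median of DMSO wells and 100% = median of geldanamycin control wells; wells of about 8 µL received 7.5 nL stock; the first replicate is given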
Ecoli rRNA inh: reduced GFP signal of wild-type E. coli, primary screen, bacterial rRNA inhibitor project, GFP/RFP fluorescence, OD600, single point | E. coli WT GFP vs humanized-ribosome RFP mutants, 24 h; stronger effect = lower value; DMSO median 0, no signal -100 | GFP signal change (wild-type ribosome), % (no concentration beside the values) | 350,000 compounds, 1.6% hits | AID 720706, 2013;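 active = significant combined selectivity score with lowered wild-type GFP, culture density cut under 30%, mutant RFP and density less affected; inactive = any of these conditions unmet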; note: one replicate is shown; some compounds called inactive have numbers as strong as hits
T cruzi inh: inhibitors of intracellular T. cruzi growth, primary screen, luminescence, NIH3T3 host cells | T. cruzi beta-gal in NIH3T3, 90 h | inhibition, % (test concentration not listed) | 300,000 compounds, 1.4% hits;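 active = mean inhibition across valid replicates above about 55%, limit read from the data; inconclusive = mean below that limit but half or more replicates reach it; inactive = mean below it, under half of replicates reach it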;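 note: signal also drops with host cell toxicity which is not excluded here; 0% = plate median of DMSO wells and 100% = zero luminescence signal; higher percent means less beta-gal luminescence so fewer parasites; stock transfer was 50 nL into about 50 µL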
ALR inh: inhibitors of human ALR sulfhydryl oxidase, primary screen, biochemical, H2O2 detection, HRP-luminol luminescence, single point | FAD-linked sulfhydryl oxidase ALR (Homo sapiens), P55789 | purified ALR, DTT oxidation | inhibition, % (concentration not given with the values) | 290,000 compounds, 3.8% hits;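 active = mean and each replicate at 75% or more; inconclusive = only one of the two met; inactive = neither met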;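 note: stock transfer was 7.5 nL into about 7.5 µL; 0% = neutral wells and 100% = wells with inactivated enzyme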
Target sequence (P55789 whole entry, looked up): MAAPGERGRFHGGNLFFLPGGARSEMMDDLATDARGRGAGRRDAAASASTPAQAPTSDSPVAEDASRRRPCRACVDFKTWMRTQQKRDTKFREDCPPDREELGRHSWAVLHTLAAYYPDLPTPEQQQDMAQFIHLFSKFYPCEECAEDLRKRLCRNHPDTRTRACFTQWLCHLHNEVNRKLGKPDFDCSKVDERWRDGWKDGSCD
A1 inh: caspase 3/7 activation in MEF A1-2A-BIM cells, primary screen, A1 inhibitor project, cell-based, luminescence, HTS. Caspase-Glo 3/7 luminescence, 3 h; percent of clofoctol response, vehicle zero. caspase activation, % (concentration not given with the values). 330,000 compounds, 0.066% hits. AID 2462, 2010;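 active = over half of replicate activation scores above 10%, or exactly half above 10 with the replicate mean above 10; inconclusive = replicate mean below 10 yet half the replicates above 10; inactive = over half of replicates below 10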;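 note: wells of about 30 µL received 50 nL stock; many hits fall short of the cut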
LANA-H2B inh: blockers of LANA interaction with H2A/H2B – biochemical, FP readout, HTS, primary screen; Protein LANA1 (Human herpesvirus 8 type P (isolate GK18)), Q9QR71; cell-free LANA-H2A/H2B peptide, fluorescence polarization; inhibition, % (test concentration not listed); 320,000 compounds, 0.6% hits; AID 2629, 2010; in the data active = inhibition mostly above about 10%, no sharp cut-off; inactive = mostly below about 6.7%;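 note: stock transfer was 7.5 nL into about 10 µL; 0% = median of vehicle wells and 100% = median of positive control wells; one replicate is shown; the record names a cut of 25% in any replicate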
Beta2AR agonist: beta2AR agonists driving receptor internalization, primary screen, cell-based, FAP fluorogen, flow cytometry. AID 504454, 2011. Am2.2-beta2AR cells; reference of the scale not given here. response, % (concentration not given with the values). 340,000 compounds, 0.43% hits;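 active = response above a set limit, near 3 SD of response in nonfluorescent compounds, cut at about 42% in these data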;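 note: stock transfer was 100 nL into about 11 µL; a reference agonist was the positive control; negative values mostly stem from fluorescent compounds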
Target sequence (P07550 whole entry, looked up): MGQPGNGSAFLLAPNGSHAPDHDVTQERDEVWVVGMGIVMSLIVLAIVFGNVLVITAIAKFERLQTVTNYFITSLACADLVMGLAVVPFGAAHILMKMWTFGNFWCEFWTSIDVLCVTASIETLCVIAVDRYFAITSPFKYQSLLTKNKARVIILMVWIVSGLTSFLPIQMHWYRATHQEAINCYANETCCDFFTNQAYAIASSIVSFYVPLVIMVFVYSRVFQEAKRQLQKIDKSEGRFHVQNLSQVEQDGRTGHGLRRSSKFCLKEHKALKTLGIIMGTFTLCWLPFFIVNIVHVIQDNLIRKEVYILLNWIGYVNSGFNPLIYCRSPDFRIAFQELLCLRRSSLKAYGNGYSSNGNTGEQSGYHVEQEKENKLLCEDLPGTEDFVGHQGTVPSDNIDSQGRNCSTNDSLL
Ecoli rRNA inh OD600: recorded beside Ecoli rRNA inh, whose call it bears; OD600 change, %; measured here: OD600 growth;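 optical density of the mix in the first replicate; 0 = DMSO median and -100 = no signal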
Ecoli rRNA inh RFP: further read-out of Ecoli rRNA inh, marked with its call; RFP signal change, %; measured here: RFP humanized mutant strains;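 first replicate; 0 = DMSO median and -100 = no signal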
* marks the source's active call; other numbers are inactive results; u = inconclusive; x = not tested or not shown.

SMILES	Beta apoptosis	Calb FLC	Ecoli rRNA inh	Ecoli rRNA inh OD600	Ecoli rRNA inh RFP	T cruzi inh	ALR inh	A1 inh	LANA-H2B inh	Beta2AR agonist
O=C(c1ccc(CS(=O)(=O)c2ccccc2)o1)N1CCN(c2ccccc2)CC1	-4	3	-3	-3	-3.7	-2	26	0.6	-2.4	-5
CCOC(=O)/C=c1\s/c(=C\c2ccc(C)cc2)c(=O)n1CC(=O)NCc1ccco1	10	-19	x	x	x	2	21	1.4	3.8	1
COc1ccc(Cc2nnc(SCC(=O)Nc3cc(Cl)ccc3OC)[nH]c2=O)cc1	-2	-2	-9	-16	1.0	-7	-2	-1.5	1.3	1
OC(COc1ccc(Br)cc1)CN1CCCC1 (configuration not stated)	-2	17	4	15	2.3	10	2	-1.8	-4.2	-5
O=C1CCCc2oc3ccc(NS(=O)(=O)c4cccc5cccnc45)cc3c21	1	-11	-19	-25	-1.9	25	-3	-0.5	10	-4
O=C1Nc2c(Br)cc(Br)c3cccc1c23	4	15	11	6	-1.8	9	-15	-0.1	-3.2	5
COc1ccc(N2CCN(S(=O)(=O)c3ccc(-c4cnc(C5CC5)o4)cc3)CC2)cc1	10	24	x	x	x	0	-17	0.7	-1.5	5
c1cnc(-c2nnc3n2CCCCC3)cn1	-7	4	x	x	x	3	-3	-0.7	5.3	-7
Cc1cc(Cl)c2oc(C(=O)N(C)C3CCOC3)c(C)c2c1 (configuration not stated)	2	0	-17	-25	-4.7	6	8	-0.2	-0.6	-2
COc1cccc(NCc2ccc([N+](=O)[O-])s2)c1	-12	24	x	x	x	-16	9	0.2	-3.5	-3
Cc1nc2c(C(=O)NCCC(C)C)c[nH]n2c(=O)c1Cc1ccccc1F	3	85*	x	x	x	-1	45	-1.0	-7.3	11
O=C(O)COCc1nc2ccccc2s1	0	12	5	14	-2.7	-4	-8	0.1	-1.1	1
COc1cc(/C=N/Nc2nc(N3CCCCC3)nc(N3CCCCC3)n2)ccc1OC(=O)c1ccco1	0	2	x	x	x	5	-1	-0.3	4.7	x
COc1ccccc1C(=O)NCCC(=O)N1CCCC(C)C1 (configuration not stated)	-10	2	-5	-14	-0.2	-3	-1	-0.2	-4.7	-3
CCOC(=O)[C@H]1[C@H]2COc3ccc(C)cc3[C@@H]2N2C(=O)CN(Cc3ccccc3)C(=O)[C@@]12C	8	x	-4	-5	-7.4	x	3	-0.2	-0.8	0
COc1cc(/C=C(\C#N)C(N)=O)ccc1OCc1c(C)no[n+]1[O-]	-1	-2	10	14	-0.8	-8	-1	-0.5	0.8	-5
O=C(O)CNC(=O)C(c1ccccc1)c1ccccc1	-4	5	-17*	-11*	6.9*	-4	-4	0.6	-0.5	-8
NC(=O)COc1ccc(/C=N\NC(=O)CC(=O)NCCc2ccccc2)cc1	2	4	9	18	3.4	-6	-6	1.5	-0.3	-7
Cc1ccc(SCCN2CCN(CCc3ccccc3)CCC2=O)cc1	2	-4	-52	-79	-23	2	x	0.6	-2.1	0
c1ccc(Cc2nn[nH]n2)cc1	1	2	x	x	x	-4	0	0.1	-4.9	-3
CCc1c(C(=O)Nc2cc(C)cc(C)c2)[nH]c(C)c1C(C)=O	9	-4	x	x	x	u	0	-0.2	1.3	7
O=C(c1cc(-c2ccccc2)n[nH]1)N1CCN(S(=O)(=O)c2ccccc2)CC1	3	-2	-5	-21	1.1	14	-6	0.3	-7.7	-6
COc1ccc(/C(C)=N/NC(=O)CNC(=O)CCc2ccccc2)c(OC)c1	0	-2	11	6	2.4	-9	-2	0.6	-7.1	-6
CC1CN(CCc2ccccc2)c2nc3c(c(=O)n(C)c(=O)n3C)n2C1 (configuration not stated)	6	-29	5	14	0.3	-9	38	-0.6	-1.4	2
NC(=O)C1(N2CCCCC2)CCN(C2CC(=O)N(Cc3ccc(N4CCCC4=O)cc3)C2=O)CC1 (configuration not stated)	-5	-9	x	x	x	8	7	0.4	0.1	3
COc1ccc(CNC(=O)c2ccc3nccnc3c2)cc1	x	5	x	x	x	-3	-3	0.2	-0.8	-6
Cc1ccc(S(=O)(=O)N(C)c2ccc(OC(=O)c3cccs3)cc2)cc1C	-4	x	-2	-1	-3.4	x	x	2.0	-2.4	-2
Cc1cccc(N(CC(=O)N/N=C/c2cc([N+](=O)[O-])ccc2Cl)S(C)(=O)=O)c1C	9	x	x	x	x	-9	x	0.0	x	10
COc1ccc(/C=N/NC(=O)CCSc2nc3ccccc3s2)cc1OC	-7	-8	0	-2	0.7	-1	17	0.0	2.4	-27
O=C(CCN1CCOCC1)Nc1cc(C(=O)Nc2ccccc2F)ccc1N1CC2CC(C1)c1cccc(=O)n1C2 (configuration not stated)	5	-3	9	8	2.1	4	14	0.5	3.4	1
CCC(Oc1ccc2ccccc2c1)C(=O)O (configuration not stated)	0	13	x	x	x	x	-24	-0.9	-2.6	6
CCOC(=O)c1cn(CC)c2cc(N3CCN(C)CC3)c(F)cc2c1=O	-12	-3	-39	-72	-16	11	-6	-1.0	-7.3	-2
Cn1nc(C(=O)OCC(=O)Nc2cccc(S(=O)(=O)N3CCCC3)c2)c2ccccc2c1=O	-8	-2	-10	-11	-3.1	6	-9	-0.9	-4.0	3
COc1ccc([N+](=O)[O-])cc1NC(=O)CSc1ccc2ccccc2c1	3	-6	8	7	2.8	-11	99*	0.6	0.2	0
c1cnc(N2CCSCC2)nc1	x	-7	x	x	x	6	-10	0.1	1.5	3
O=S(=O)(NCC1CCCO1)c1cnc(Cl)c(Cl)c1 (configuration not stated)	-5	11	x	x	x	48	-5	0.2	0.3	6
N=c1ncn(CC(O)CN2CCOCC2)c2nc(N3CCOCC3)[nH]c12 (configuration not stated)	-1	-3	x	x	x	6	22	1.4	10	9
CCN(C(=O)Nc1cccc(Cl)c1)c1ccccc1	1	32	0	1	0.5	-3	2	0.7	1.4	-5
COc1ccc(C(=O)C2CCCN(C(=O)C3CCOCC3)C2)cc1OC (configuration not stated)	-1	-10	0	9	0.1	-2	0	0.0	0.5	10
CCOc1ccc(OCCSc2nc(N)cc(=O)[nH]2)cc1	13	24	-4	-1	6.5	-10	-5	-5.6	-3.0	1
CCc1nc(SCC(=O)c2ccc(Cl)s2)c2oc3ccccc3c2n1	-1	-7	x	x	x	34	-4	0.2	0.0	-8
CN(C1CCCCC1)S(=O)(=O)c1ccccc1	-6	-4	x	x	x	-2	-3	0.7	7.8	-5
O=C1CC2c3ccccc3C1C1C(=O)N(CCO)C(=O)C21 (configuration not stated)	-1	-29	16	10	-3.1	6	-2	0.3	1.5	-6
CC1C(=O)N2CCCc3cc(NS(=O)(=O)c4ccc([N+](=O)[O-])cc4)cc1c32 (configuration not stated)	-1	16	4	8	-0.7	16	-21	0.1	3.6	1
O=C(O)c1cccc(OCCN2CCCC2=O)c1	-5	36	16	16	1.9	-2	-7	1.4	-8.6	-8
CC1(C)CC(=O)C=C(NCCN2CCN(C(=S)Nc3ccc(F)cc3)CC2)C1	0	18	-3	-7	5.3	2	1	-0.2	-17	0
CCCc1cc(=O)[nH]c(SCC(=O)Nc2cc(S(=O)(=O)N3CCOCC3)ccc2N(CC)CC)n1	24	x	-7	-16	3.2	x	-1	0.2	-2.8	2
O=C(Nc1c(S(=O)(=O)c2ccccc2)csc1Br)c1ccccc1Cl	0	-11	-1	-6	2.4	9	3	0.0	-1.5	-3
CCOC(=S)N/C(=N\S(=O)(=O)c1ccc(C)cc1)c1ccccc1	-5	8	18	-3	-0.9	3	-6	0.4	-0.9	4
O=C(Cn1cc2c(n1)CCCCC2)N1CCCCC1	1	-1	6	3	-0.9	0	-9	-0.6	0.5	-2

Additional compounds
SMILES	Beta apoptosis	Calb FLC	Ecoli rRNA inh	Ecoli rRNA inh OD600	Ecoli rRNA inh RFP	T cruzi inh	ALR inh	A1 inh	LANA-H2B inh	Beta2AR agonist
Cc1cccc(Nc2nnc(SCC(=O)Nc3ccccc3[N+](=O)[O-])s2)c1C	1	-4	x	x	x	-4	-1	-0.1	-6.8	-9
C=CCOC(=O)C(=O)/C=C/c1coc2ccccc2c1=O	-20	2	6	-3	15	-8	30	-0.5	-1.6	2
COc1ccc(-c2[nH]c(-c3ccc(F)cc3)nc2SCC(=O)NCc2ccco2)cc1OC	1	-3	7	-6	-2.2	-7	x	0.1	2.2	8
c1cncc(-c2nnc3sc(-c4ccco4)nn23)c1	x	-9	x	x	x	-12	6	-0.7	-4.9	-17
Cc1ccc2c(c1)C(=O)C(=O)N2CC1COc2ccccc2O1 (configuration not stated)	1	-20	-10	-14	14	21	x	-0.5	-3.6	17
COC(=O)c1ccc(C(=O)OC)c(NC(=S)N2CCCC(C)C2)c1 (configuration not stated)	1	-15	x	x	x	10	3	0.0	1.0	-3

These rows are one share of the data (hit frequency here may not be typical).
